CtBP-E1A inh: CtBP/E1A binding inhibition; AlphaScreen GST-E1A/His-CtBP binding, 1536-well; active compounds read low; control for the full effect not named in the record; activity change, % (test concentration not listed); 0.49% of 340,000 active; AID 651724; in the data active means activity change below about -65%; inconclusive means about -30% to -65%; inactive means above about -30%; further: on the % scale 0 is the no-effect control and ±100 the full control effect
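In 5 uL wells, 23 nL compound meets equimolar GST-E1A and His-CtBP (5X stock 125 nM each) for 2 h, 37 °C. Beads (5X, 50 ug/mL) then 1 h, 37 °C, dark.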
ClpP mod: qHTS Assay for Activators of ClpP; purified B. subtilis ClpP, FRET peptide cleavage, 20 min; Potency, µM (doses to about 57.5 µM), for the others: at the highest dose activity change, negative = active; 1.9% of 340,000 active; AID 651965, 2013; active = well fitted falling curve with a large enough effect; inconclusive = small, poorly fitted or top-dose-only effect; inactive = no such curve, though single readings can be large or run the other way; further: potency means the concentration at half of the fitted maximal effect; the source files actives as falling curves though it sought activators and does not explain the sign; nearly all actives have a fitted effect of over 65% in size; many hits overshoot -100%
Target sequence (P80244 whole entry, looked up): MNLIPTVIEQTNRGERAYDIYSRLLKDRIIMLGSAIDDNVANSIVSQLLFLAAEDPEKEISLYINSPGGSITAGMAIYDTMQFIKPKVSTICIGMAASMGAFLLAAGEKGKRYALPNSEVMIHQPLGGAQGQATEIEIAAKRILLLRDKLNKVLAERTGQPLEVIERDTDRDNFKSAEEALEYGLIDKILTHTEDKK
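ClpP 10 microg/mL final, pH 8 Tris/KCl buffer with BSA, glycerol, Tween-20; compound pinned in; FRET-FV substrate; RT 20 min; Ex320/Em430; ΔFRET vs ADEP 5.8 microM, DMSO, no enzyme.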
gsp agonist: activates gsp, the McCune-Albright syndrome mutation; 0.13% of 340,000 active; Potency, µM (titrated, usually from 76.9 µM), for the others: at the highest dose activation (cAMP increase), usual class: activators; gsp mutant cells, cAMP HTRF, 30 min; control for the full effect not named in the record; active = well fitted activation curve with a large enough effect; inconclusive = small, poorly fitted or top-dose-only effect, or another doubt; inactive = no such curve, though single readings can be large or run the other way; cell line not stated here;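 further: phosphodiesterase inhibitor Ro 20-1724 added with compounds to block cAMP breakdown; potency means the concentration at half of the fitted maximal effect; nearly all actives have a fitted effect of over 60% in size; about a fifth of the inactives were tested at one dose only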
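Cells stably selected in G418 were plated at 2000/well, grown 16-24 hr, then given compounds in DMSO with the PDE inhibitor […] (300 uM solution added) for 30 min at 37C; cAMP was read by HTRF.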
TRPV1 PAM: human TRPV1 potentiation; TRPV1-expressing cells, Fluo-8 calcium influx, capsaicin EC20 potentiation; host cell line not named in the record; control for the full effect not named in the record; 0.02% of 320,000 active; Q8NER1; potentiation, % at 8.33 µM; active means potentiation above 80%; inconclusive means 30% to 80%; inactive means below 30%; further: 0% is about no effect
Target sequence (Q8NER1 whole entry, looked up): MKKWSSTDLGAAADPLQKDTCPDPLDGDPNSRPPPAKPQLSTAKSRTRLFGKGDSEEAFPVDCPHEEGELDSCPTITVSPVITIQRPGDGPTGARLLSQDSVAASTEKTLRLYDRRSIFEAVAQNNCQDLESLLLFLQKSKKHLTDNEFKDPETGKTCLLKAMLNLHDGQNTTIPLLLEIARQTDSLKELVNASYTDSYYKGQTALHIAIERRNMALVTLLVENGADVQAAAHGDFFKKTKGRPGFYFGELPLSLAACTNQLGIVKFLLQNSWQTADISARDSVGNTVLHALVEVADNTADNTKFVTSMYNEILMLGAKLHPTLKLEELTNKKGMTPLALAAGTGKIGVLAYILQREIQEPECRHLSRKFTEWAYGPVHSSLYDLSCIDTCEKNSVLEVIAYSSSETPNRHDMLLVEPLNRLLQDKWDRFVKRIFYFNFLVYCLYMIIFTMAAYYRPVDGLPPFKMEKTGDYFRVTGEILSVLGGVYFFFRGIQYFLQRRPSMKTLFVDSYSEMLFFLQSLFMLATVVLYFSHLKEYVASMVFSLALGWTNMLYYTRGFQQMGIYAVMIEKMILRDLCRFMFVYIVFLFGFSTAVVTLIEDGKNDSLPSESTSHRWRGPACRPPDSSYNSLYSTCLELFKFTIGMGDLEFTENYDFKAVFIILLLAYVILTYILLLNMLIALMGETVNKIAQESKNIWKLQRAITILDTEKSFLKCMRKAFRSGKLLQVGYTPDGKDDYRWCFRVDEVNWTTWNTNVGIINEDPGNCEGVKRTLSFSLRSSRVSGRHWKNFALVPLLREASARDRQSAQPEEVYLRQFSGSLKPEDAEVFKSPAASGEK
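Cells expressing TRPV1 were dye-loaded with Fluo-8 and read kinetically: 10 s baseline, 3 min after compound (agonist portion), then 2 min after EC20 capsaicin (allosteric enhancer portion). Calcium-bound dye fluorescence at 480/520 nm.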
Menin-MLL FL inh: displaces fluorescein MLL peptide from human menin; Fluorescence polarization, fluorescein-MLL peptide displacement from menin; FP activity change, % at 61.4 µM; 290,000 tested, under 10 active; inconclusive = falling polarisation curve, or a change in total fluorescence; inactive = total fluorescence flat and polarisation flat or rising; no compound was filed as active; the % refers to the polarisation; negative = inhibition;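 further: % of control where 0% means no effect; inhibitors lower the polarisation; unlabelled MLL peptide was the positive control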
gsp antag: antagonists of gsp mutant (McCune-Albright syndrome). Potency, µM (doses to about 76.9 µM), for the others: top-dose activity change, negative = inhibition, usual class: inhibitors. gsp-mutant cells, cAMP HTRF, 30 min; control for the full effect not named in the record. 0.4% of 340,000 active; active = falling curve of any shape with a large fitted effect; inconclusive = falling curve, mostly with a smaller effect; inactive = flat or rising curve; cell line not stated here;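 further: intracellular cAMP measured with PDE inhibitor Ro 20-1724 present during compound exposure; potency means the concentration at half of the fitted maximal effect; on the % scale 0 is the no-effect control and ±100 the full control effect; nearly all actives have a fitted effect of over 65% in size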
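G418-selected cells were plated in DMEM/10% FBS for 16-24 h at 37C, then treated with compounds plus the PDE inhibitor […] (300 uM solution added) for 30 min at 37C. Intracellular cAMP was measured by HTRF after 30 min lysis at room temperature.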
Sfp inh: Sfp phosphopantetheinyl transferase inhibition; Q9F4F7; Biochemical Sfp PPTase activity, qHTS; Potency, µM, without a hit: max response, negative = inhibition, actives largely listed as inhibitors; 3.5% of 310,000 active; active means well fitted inhibition curve with a large enough effect; inconclusive means small, poorly fitted or top-dose-only effect, or another doubt; inactive means no such curve, though single readings can be large or run the other way;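 further: the enzyme is Sfp with the accession as filed and its product quenches rhodamine fluorescence; potency means the concentration at half of the fitted maximal effect; 0% = enzyme reaction without inhibitor and -100% = no enzyme wells; top concentration of the series not given in the record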
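Step 1, compound plus 15 nM Sfp-PPTase, 15 min, room temperature. Step 2, add rhodamine-CoA (5 uM) and BHQ-2-YbbR (12.5 uM). Step 3, read 525/598 nm fluorescence at 0 and 30 min.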
Starred values were filed as active, the others as inactive; ? = inconclusive; / = no result given; & = joins results of further samples; [ ] = dose if it differs, or a comment. Outcome played no part in choosing rows, and some 5.3% of all compounds hit somewhere here.

mol	CtBP-E1A inh	ClpP mod	gsp agonist	TRPV1 PAM	Menin-MLL FL inh	gsp antag	Sfp inh
CC(=O)C(/C=N/c1ncc(C(F)(F)F)cc1Cl)=C(\C)O	-17.7	-2.1%	-35.2%[inhibitor]	-5.7	0.8	16.5%	23.0%
COc1ccc(/C=C(/NC(=O)c2ccccc2)C(=O)NCCCn2ccnc2)cc1OC	3.1	-0.5%	-20.2%	23.6	/	7.0%	10.7%
CCC(C)[C@H](NC(=O)Nc1ccc(C)cc1C)C(=O)O (stereo partly drawn)	/	1.0%	-12.8%	-1.5	3.3	13.0%	6.6%
O=C(CCCSc1nc2ccccc2s1)NC1=NCCS1	-2.4	-0.2%	?	1.5	4.3	-13.0%	-7.4%
O=C(NN1C(=O)NC2(CCCCC2)C1=O)c1cc2cc(Cl)ccc2o1	-1.6	-2.5%	-1.8%	/	/	4.8%	/
Cc1ccc(NC(=O)CN2C(=O)COc3ccc(C)cc32)nc1	7.6	1.2%	?	-1.1	3.8	6.7%	15.5%
CCC(C)C(=O)Nc1nnc(SCC(=O)NC2CCCC2)s1 (stereo not drawn)	7.5	/	-0.2%	1.9	-0.3	6.0%	-6.8%
CCOC(=O)C1(Cc2ccccc2)CCCN(C2CCN(C(C)=O)CC2)C1 (stereo not drawn)	-2.4	/	5.6%[15.4 µM]	-5.7	?	3.9%	1.6%
CCOc1ccccc1NCc1nnc(-c2ccccc2)o1	0.0	1.0%	-40.0%[15.4 µM]	2.8	-0.5	-31.8%	4.2%
COC(=O)CN1C(=O)COc2ccc(Cl)cc21	-7.5	-0.4%	-9.7%	3.0	-0.2	5.3%	-1.6%
CCCC1(C(=O)OC)NC(c2ccc(OC)cc2OC)C2C(=O)N(c3cccc(C(C)=O)c3)C(=O)C21 (stereo not drawn)	1.4	/	-13.2%	2.7	4.5	-12.7%	-0.1%
CCOC(=O)c1ccc(NC(=O)C(CC)CC)cc1	2.7	0.0%	?	-6.0	-4.0	-2.4%	3.4%
O=C(NCc1ccco1)C1CCN(c2nc3ccccc3n2Cc2ccccc2F)CC1	-6.2	-0.1%	-104.0%[inhibitor]	-3.5	?	-17.5%	?
O=C(CSc1nc(=O)n2ccccc2n1)NCc1ccc2c(c1)OCO2	2.1	/	10.2%[15.4 µM]	-0.5	/	?	/
OC(CN1CCN(Cc2ccccc2)CC1)c1ccc(F)cc1 (stereo not drawn)	7.3	-0.3%	-8.7%[15.4 µM]	-9.1	0.9	8.7%	6.0%
COc1ccc(F)cc1CN1CCN(C(=O)c2ccc(S(=O)(=O)N3CCCCCC3)cc2)CC1	/	-0.1%	17.9%	/	/	-3.2%	/
CCn1c(SCC(=O)Nc2ccc(NC(=O)c3ccco3)cc2)nnc1-c1cccs1	-0.7	0.5%	?	/	/	8.6%	/
COc1cccc(CN2CCN(C(=O)c3ccc(-c4ccccc4)cc3)CC2)c1OC	-2.1	-1.8%	?	0.3	-4.4	-9.5%	-1.9%
O=C(c1ccc(NS(=O)(=O)c2cccc3cccnc23)cc1)N1CCOCC1	-4.9	-25.5%	3.8%	/	/	-10.2%	/
COc1ccc(-n2c(Cc3cccn3C)nnc2SCC(=O)NC2CCCC2)cc1	-20.9	-1.9%	-57.4%[inhibitor]	13.5	2.2	-6.4%	-1.1%
O=C(NC(=S)Nc1nc2ccccc2s1)c1cccs1	-2.7	-1.9%	-23.5%	-19.6	?	?	-8.4%
COc1ccccc1-c1sc2ccccc2c1-c1ccc2c(c1)OCO2	-0.4	?	/	22.7	-5.3	-17.9%	-0.1%
Cc1c(O)ccc(-c2n[nH]c(C(=O)O)c2-c2nc3ccccc3s2)c1O	-1.6	/	6.9%[15.4 µM]	-1.9	5.0	5.4%	2.0%
Cc1ccc(-c2nn(C(C)(C)C)c3ncnc(N)c23)cc1	-0.2	-23.7%	19.5%	-12.1	0.6	-11.3%	14.4%&16.6%&6.0%
CCOC(=O)C1CCN(C(=O)CNC(=O)c2nn(-c3ccc(OC)c(Cl)c3)c(=O)c3ccccc23)CC1	-1.1	/	-5.3%	19.7	-6.9	-33.6%	4.6%

Profiles, quoted from the list. Order of screens: CtBP-E1A inh	ClpP mod	gsp agonist	TRPV1 PAM	Menin-MLL FL inh	gsp antag	Sfp inh
CCn1c(SCC(=O)Nc2ccc(NC(=O)c3ccco3)cc2)nnc1-c1cccs1 as listed: -0.7	0.5%	?	/	/	8.6%	/
CCOC(=O)C1(Cc2ccccc2)CCCN(C2CCN(C(C)=O)CC2)C1 (stereo not drawn) as listed: -2.4	/	5.6%[15.4 µM]	-5.7	?	3.9%	1.6%
COc1cccc(CN2CCN(C(=O)c3ccc(-c4ccccc4)cc3)CC2)c1OC as listed: -2.1	-1.8%	?	0.3	-4.4	-9.5%	-1.9%

Back to the main list, starting two compounds before the break.
mol	CtBP-E1A inh	ClpP mod	gsp agonist	TRPV1 PAM	Menin-MLL FL inh	gsp antag	Sfp inh
Cc1ccc(-c2nn(C(C)(C)C)c3ncnc(N)c23)cc1	-0.2	-23.7%	19.5%	-12.1	0.6	-11.3%	14.4%&16.6%&6.0%
CCOC(=O)C1CCN(C(=O)CNC(=O)c2nn(-c3ccc(OC)c(Cl)c3)c(=O)c3ccccc23)CC1	-1.1	/	-5.3%	19.7	-6.9	-33.6%	4.6%
CNc1nc2ccccc2n(C)c1=O	1.6	/	-8.0%[15.4 µM]	0.9	-4.5	18.4%	16.8%
CC(C)N(CCO)C(=O)C(c1ccccc1)c1ccccc1	1.1	0.2%	?	-11.4	-1.7	2.6%	3.3%
O=C(OCC(=O)N1CCOCC1)c1cc2ccccc2oc1=O	5.7	3.8%	8.1%	3.4	/	2.1%	/
O=C(Nc1c(C(=O)NCc2ccco2)cnn1-c1ccccc1)c1cccc(F)c1	-8.9	-0.4%	27.6%	-26.1	1.4	-16.2%	7.4%
Cc1ccc(N2C(=O)N(CC(=O)Nc3cccc([N+](=O)[O-])c3C)C(=O)C2C)cc1 (stereo not drawn)	-1.8	/	-5.9%[15.4 µM]	-1.7	/	2.7%	/
CCC(C(=O)NC1CCCCC1)N(Cc1cccs1)C(=O)CCC(=O)Nc1cc(C)on1 (stereo not drawn)	7.1	/	29.2%	15.6	-2.2	-4.1%	19.9%
CC(C)c1ccccc1OCC(=O)Nc1ccc2[nH]ncc2c1	-2.8	/	-18.6%	-10.3	-0.6	-3.8%	12.0%
COc1cc(Cl)ccc1OCc1cc(C(=O)N(C)Cc2cn(C)nc2C)no1	-1.3	0.6%	8.4%[15.4 µM]	-21.0	/	0.3%	15.3%
CCCS(=O)(=O)c1nc(C)cc(C)c1S(C)(=O)=O	5.6	/	?	-1.6	-0.8	9.9%	15.4%
Cc1ccc2c(c1)NC(=O)C(CC(=O)NCc1cccnc1)O2 (stereo not drawn)	5.9	1.9%	-163.4%[inhibitor]	-0.1	-1.3	-0.5%	?
COc1cccc(NC(=O)Nc2nnc(N3C(C)CCCC3C)s2)c1 (stereo not drawn)	-8.7	/	27.1%	6.3	0.0	-8.9%	-9.2%
O=[N+]([O-])c1cc(C(F)(F)F)ccc1Sc1ccc2ccccc2n1	?	-1.4%	11.6%	22.0	4.3	-8.6%	?
CC(C)(C)OC(=O)C[C@@H]1C/C=C\C[C@H](CC(=O)N[C@H](CO)Cc2ccccc2)C(=O)N[C@H](C(C)(C)C)COC1=O	-1.1	1.5%	/	/	/	5.5%	/
COC(=O)Cc1cc(=O)oc2cc(O)ccc12	-7.8	/	17.9%[15.4 µM]	2.2	-4.0	2.9%	19.2%
O=C(CSc1nc2ccccc2s1)NCc1cc([N+](=O)[O-])ccc1O	/	-2.2%	-31.5%[inhibitor]	?	/	-18.7%	/
Cc1nn(C)c(C)c1NC(=O)Nc1cccc(C(F)(F)F)c1	-0.1	-1.2%	-52.2%[inhibitor]	-15.3	0.3	-0.1%	14.5%
C/C(=N\NC(=O)c1cccc([N+](=O)[O-])c1)c1cccc(NC(=O)C2CC2)c1	14.4	/	1.2%[15.4 µM]	-2.3	1.9	-7.8%	5.0%
CCC(C)NC(=O)CSc1nnc(-c2ccoc2C)n1CC1CCCO1 (stereo not drawn)	-2.3	-0.3%	-6.6%	-10.0	1.2	5.3%	10.9%
COc1cccc(C(c2c(O)nc(SC)n(C)c2=O)c2c(O)nc(SC)n(C)c2=O)c1	-3.4	-1.0%	-17.1%	?	4.0	-7.5%	4.0%
CN(C(=O)CSc1ccncc1)C1CCCN(Cc2ccccc2F)C1 (stereo not drawn)	4.3	-1.1%	0.9%	-12.0	4.2	8.0%	11.4%
COc1ccc(OC)c(-c2cc(C(=O)Nc3cc(C)n(Cc4ccc(Cl)cc4)n3)no2)c1	24.2	0.3%	?	-1.4	1.7	10.6%	?
COc1ccc(CCNC(=O)COC(=O)CSc2ccc(C(N)=O)cc2[N+](=O)[O-])cc1OC	11.9	0.0%	-7.5%	/	/	5.8%	/
COc1ccc(OC)c(/C=N/N(CCC#N)C2=NS(=O)(=O)c3ccccc32)c1	/	5.5%	-9.5%	-9.8	-1.2	-1.4%	0.7%
COc1ccc(-c2csc(NC(=O)CN3C(=O)C4CC=CCC4C3=O)n2)cc1 (stereo not drawn)	-2.9	0.0%	-31.8%[inhibitor]	-34.2	/	-0.5%	/
